Compound activity deposited in PubChem BioAssay by National Center for Advancing Translational Sciences (NCATS).
Rango release inh – inhibition of RanGTP-driven Rango-importin beta dissociation; O95149+P62826; Biochemical FRET Rango-importin beta, RanGTP-induced dissociation; Potency, µM (top dose mostly 46.1 µM), for the others: at the highest dose activity change, negative = inhibition; 340,000 tested, 0.071% active; AID 540253; active means falling FRET ratio curve, often poorly fitted, with flat reads before Ran was added; inconclusive means other falling curves, or compound fluorescence or quenching; inactive means flat or rising ratio curve;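 note: potency is the fitted concentration of half-maximal effect; % of control where 0% means no effect; nearly all actives have a fitted effect of over 45% in size; -100% = wells without RanGTP and RCC1; the record marks most hits as doubtful in a second field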
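Two FRET readings bracket the reaction: one 5 min after compound meets Rango–importin beta, another 45 min after RanGTP-RCC1 (0.6 uM Ran, 0.2 uM RCC1, 2 mM GTP) is added. Only the second defines inhibition.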
Rango-impB inh – prevents formation of the Rango-importin beta complex; Q14974; Rango CFP/YFP FRET sensor + importin beta, 45 min; Potency, µM (highest dose often 92.2 µM), for inactives: top-dose inhibition of complex formation; 340,000 tested, 0.031% active; active = rising FRET ratio curve, often small or poorly fitted; inconclusive = mostly compound fluorescence or quenching in the first reads; inactive = flat curves in all reads;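 note: potency is the fitted concentration of half-maximal effect; 0% = DMSO wells and 100% = buffer wells lacking importin beta; nearly all actives have a fitted effect of over 15% in size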
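FRET biosensor (snurportin 1 IBB flanked by EYFP and cerulean), 50 nM, with compound 5 min, then 0.125 microM importin beta in PBS, 1 mM DTT, 0.02% Tween-20, 0.1% BSA. CFP/YFP ratio read after 45 min at room temperature; pre-read flags interference.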
GLA inh pH 4.5 – alpha-galactosidase A (human) inhibition, pH 4.5 | purified enzyme, 4-MU-alpha-Gal fluorescence, pH 4.5 | activity change, negative = inhibition, % at 105 µM | 230,000 tested, under 10 active; inconclusive = small, poorly fitted or top-dose-only inhibition, or a rising curve; inactive = flat fitted curve, though single readings scatter; no compound was filed as active;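 note: 0% = full activity with enzyme and -100% = basal without enzyme; dose as in the result columns while the protocol names 77 µM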
Target sequence (P06280 whole entry, looked up): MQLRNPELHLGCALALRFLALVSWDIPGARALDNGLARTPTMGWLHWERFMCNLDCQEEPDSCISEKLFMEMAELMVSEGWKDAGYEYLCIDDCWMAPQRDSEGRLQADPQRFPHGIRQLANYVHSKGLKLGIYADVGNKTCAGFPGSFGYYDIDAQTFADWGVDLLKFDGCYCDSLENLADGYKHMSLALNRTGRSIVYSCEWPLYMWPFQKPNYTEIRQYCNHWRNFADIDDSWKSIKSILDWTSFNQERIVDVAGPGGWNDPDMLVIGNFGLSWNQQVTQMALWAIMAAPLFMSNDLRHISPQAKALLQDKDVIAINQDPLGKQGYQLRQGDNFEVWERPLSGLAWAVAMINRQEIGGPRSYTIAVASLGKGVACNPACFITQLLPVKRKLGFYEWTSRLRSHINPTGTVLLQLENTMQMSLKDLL
miR-21 reporter – raises the signal of a miR-21 reporter; 340,000 tested, under 10 active; HeLa miR-21 FLuc reporter, luciferase, 48 h; Potency, µM (doses to about 38.3 µM), inactives show at the top dose reporter change, positive = more light; active = well fitted rising curve with a large enough effect; inconclusive = small, poorly fitted or top-dose-only effect; inactive = no such curve, though single readings can be large or run the other way;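 note: % of control where 0% means no effect; miR-21 action dims this reporter so a rising signal means less miR-21 action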
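HeLa cells endogenously expressing miR-21, stably carrying CMV-driven firefly luciferase with a downstream miR-21 binding site, 2000 cells/well. Titrations up to approximately 40 uM, 48 hours; luciferase luminescence read.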
Active calls of the source: *; ? = inconclusive; . = not tested or not shown; & = joins results of further samples.

#	smiles	miR-21 reporter	GLA inh pH 4.5	Rango-impB inh	Rango release inh
1	CC(=O)c1ccc(NC(=O)CNCc2cccs2)cc1	-58%	.	4.4%	18%
2	COC(=O)C1=C(C)N(Cc2ccco2)C(=O)N[C@H]1c1ccccc1	2%	1&0	.	.
3	CS(=O)(=O)N1N=C(c2ccco2)CC1c1ccc(Cl)cc1Cl (stereo unspecified)	-2%	1	0.5%	-8%
4	Cc1ccc(CNC(=O)C(=O)NCC(c2ccco2)N2CCOCC2)cc1 (stereo unspecified)	-8%	-5	1.6%	-4%
5	C/C(=N\Nc1ccc(Cl)c(C(=O)O)c1)c1cccc2ccccc12	-8%	.	-4.4%	5%
6	C[N+](C)(C)CCN(Cc1ccc(Cl)cc1)c1ccccn1	9%	2	-1.1%	-1%
7	O=C(O)CCCNC(=O)/C(=C\c1ccc(Cl)cc1)NC(=O)c1ccc(Br)cc1	-3%	14	0.0%	2%
8	Nc1ccn(C2OC(COC(=O)C34CC5CC(CC(C5)C3)C4)C(O)C2O)c(=O)n1 (stereo unspecified)	.	.	-3.0%	7%
9	COc1ccc(C(=O)/C=C(\N)C(F)(F)F)c(O)c1	4%	-6	0.4%	1%
10	CN(C)S(=O)(=O)n1cc(/C=C(\NC(=O)c2ccccc2)C(=O)N2CCOCC2)c2ccccc21	-4%	.	-1.8%	14%
11	CCOc1ccc(N2C(=O)CC(Sc3ccccc3C(=O)O)C2=O)c([N+](=O)[O-])c1 (stereo unspecified)	-3%	-1	3.1%	1%
12	CCCCC/C(=N\NC(=O)CCC(=O)NCc1ccccc1)c1ccccc1	-3%	0	-0.9%	17%
13	CC1CCN(C(=O)COC(=O)COc2ccccc2C#N)CC1	.	.	-3.6%	1%
14	C#CCOCCOCCOCCNc1nc(N2CCN(C(=O)CCCCCCCCCCNC(=O)[C@@H](CCC(=O)O)n3cc(CCCCCN)nn3)CC2)nc(N2CCN(C(=O)CCCCCCCCCCNC(=O)[C@H](CO)n3cc(CCCSC)nn3)CC2)n1	.	.	-2.9%	0%
15	c1ccc(Nc2nc(N3CCCC3)nc(N3CCCC3)n2)cc1	6%	-1	-2.7%	47%
16	CCC(=O)n1nc(-c2ccccc2)nc1N	-5%	3	-0.8%	0%
17	Cc1ccc(C(=O)CCC(=O)OCC(=O)N(CC(C)C)c2c(N)n(Cc3ccccc3)c(=O)[nH]c2=O)cc1	.	.	-1.8%	-19%
18	COc1ccc(/C=C/C(=O)N2CCC(c3ccccc3)C2)cc1 (stereo unspecified)	-9%	-4	-1.4%	5%
19	COc1cc(C2NC(=S)NC(c3ccccc3)=C2C(C)=O)cc(Br)c1OCC(N)=O (stereo unspecified)	-2%	0	0.4%	10%
20	Cc1csc(NC(=O)C(NS(=O)(=O)c2ccc(Br)s2)c2ccccc2)n1 (stereo unspecified)	-8%	2	0.9%	3%

Just miR-21 reporter, Rango release inh and GLA inh pH 4.5, for some of the entries so far:
| item | compound | miR-21 reporter | Rango release inh | GLA inh pH 4.5 |
| --- | --- | --- | --- | --- |
| 5 | C/C(=N\Nc1ccc(Cl)c(C(=O)O)c1)c1cccc2ccccc12 | -8% | 5% | . |
| 6 | C[N+](C)(C)CCN(Cc1ccc(Cl)cc1)c1ccccn1 | 9% | -1% | 2 |
| 7 | O=C(O)CCCNC(=O)/C(=C\c1ccc(Cl)cc1)NC(=O)c1ccc(Br)cc1 | -3% | 2% | 14 |
| 8 | Nc1ccn(C2OC(COC(=O)C34CC5CC(CC(C5)C3)C4)C(O)C2O)c(=O)n1 (stereo unspecified) | . | 7% | . |

New compounds follow.
#	smiles	miR-21 reporter	GLA inh pH 4.5	Rango-impB inh	Rango release inh
21	CCC(C)c1ccccc1NS(=O)(=O)c1cnn(CC)c1 (stereo unspecified)	9%	.	3.1%	10%
22	Cc1cccc(NC(=O)Nc2ccc(Oc3c(F)c(F)c(F)c(F)c3F)cc2)c1	-1%	-1	0.1%	-1%
23	CC1=C(C)CC(C(=O)NCc2c(F)cccc2Cl)C(C(=O)O)C1 (stereo unspecified)	1%	.	-2.0%	-5%
24	CCOC(=O)CNC1CC(=O)N(c2cccc(Cl)c2)C1=O (stereo unspecified)	-1%	-9	-0.2%	-8%
25	CSc1cccc(NC(=O)COc2ccccc2C)c1	-32%	-6	3.9%	9%
26	CCc1ccc(S(=O)(=O)Nc2nccs2)cc1	-2%	.	-0.2%	20%
27	Cc1ccc(S(=O)(=O)NCC(=O)N2CCN(c3ccccn3)CC2)cc1	-1%	1	7.1%	-13%
28	N#Cc1c(-c2ccccc2)cc(-c2ccccc2)[nH]c1=O	5%	.	1.6%	-12%
29	O=C(NCC1CCCO1)c1cn(Cc2ccccc2)nc1-c1ccccc1 (stereo unspecified)	.	.	1.0%	10%
30	O=C(NCc1ccco1)/C(=C\c1cccs1)NC(=O)c1ccsc1	-18%	-9	0.5%	0%
31	Cc1cccc(C(=O)O/N=C2\CCCc3ccccc32)c1	-12%	-17	0.7%	?
32	COc1cc2nc(C3CCC3)n(NC(=O)C3CCCC(OC)C3)c(=O)c2cc1OC (stereo unspecified)	-3%	0	1.5%	6%
33	COC(=O)CCSCC(=O)Nc1ccc(S(=O)(=O)N2CCOCC2)cc1OC	2%	0	-0.2%	0%
34	Cc1cc(Cl)ccc1OCCCC(=O)N1CCN(C)CC1	-14%	10	1.0%	-9%
35	Cc1nc(S/C(=C/c2ccc(-c3ccc(C(=O)O)cc3)o2)C(=O)O)n[nH]1	-2%	-5	?	?
36	COc1ccc(C)cc1S(=O)(=O)N1CCCC(C(=O)NCC2CCCO2)C1 (stereo unspecified)	-1%	3	2.4%	0%
37	CC(C)OC(=O)C1CC(C)(O)C(=O)C(C(=O)OC(C)C)C1c1ccc([N+](=O)[O-])cc1 (stereo unspecified)	9%	-2	-1.6%	12%
38	CC(C)N1CCN(c2ccncc2S(=O)(=O)N2CCOCC2)CC1	-2%	-21	-3.6%	12%
39	Cc1c(C(=O)N2CCN(c3ncccn3)CC2)sc2nc3n(c(=O)c12)CCCC3	-3%	4	-1.2%	3%
40	O=C(NCCCN1CCOCC1)C(=O)NCC1OCCN1S(=O)(=O)c1ccc(F)cc1 (stereo unspecified)	-3%	.	-0.1%	-6%
41	COCCn1c(C)cc(C(=O)CSc2nc(C)nc3sc4c(c23)CCC4)c1C	.	.	-2.8%	3%
42	COc1ccc(NC(=O)CCSc2cc(C)c3ccccc3n2)cc1	-8%	-8	0.8%	8%
43	Cc1c(C)n(C)c2ccc(C(=O)NCCCN3CCN(c4ccccc4F)CC3)cc12	4%	.	-2.1%	-1%
44	COc1ccc(CNC(=S)Nc2ccc3nc(N4CCN(C)CC4)cc(C)c3c2)cc1	-12%	0	2.8%	4%
45	O=C(NNC(=O)c1ccc[nH]1)Nc1cccc(C(F)(F)F)c1	-50%	-2	4.2%	18%
46	O=C(NCc1nc2ccccc2[nH]1)C1=C[C@@H](c2ccccc2)C[C@@H](OCCCCO)O1	0%	3	-1.0%	1%
47	Cc1ccccc1NC(=O)c1ccc(-n2cncn2)nc1	-7%	6	-0.8%	4%
48	O=C1/C(=C\c2ccsc2)N2CCC1CC2	-3%	-4	0.5%	25%
49	c1ccc(Cn2c(Sc3nnnn3-c3ccccc3)nnc2-c2ccccc2)cc1	15%	-10	7.7%	1%
50	O=C(CCc1nnc(-c2ccccc2)o1)c1ccc(Cl)cc1	-1%	-14	-0.5%	34%
51	CC(=O)Nc1ccccc1OCC(=O)NCCc1ccc(Cl)cc1Cl	9%	3	-1.6%	8%
52	O=S(=O)(NCC(c1cccnc1)N1CCN(c2ccc(F)cc2)CC1)c1ccc(F)cc1 (stereo unspecified)	9%	-10	2.1%	7%
53	O=C(Cn1nc(Cl)nc1Cl)Nc1ccccc1	-3%	8	3.0%	-5%
54	CN1C(=O)/C(=C\c2cccc(OCc3ccccc3)c2)SC1=S	-1%	.	-2.0%	-5%
55	Cc1cc(C)cc(C(=O)NC(CC(N)=O)c2ccc(NCCN3CCCC3)c([N+](=O)[O-])c2)c1 (stereo unspecified)	0%	.	-2.7%	-12%
56	O=C(CCS(=O)(=O)c1ccc(Cl)cc1)NCCC1=CCCCC1	0%	.	5.1%	-1%
57	CS(=O)(=O)N1Cc2ccccc2CC1C(=O)OCC(=O)NCc1ccccc1 (stereo unspecified)	.	.	0.7%	-14%
58	Cc1ccc2nc(SCn3nnc4ccccc4c3=O)[nH]c2c1	-57%	0	0.3%	-3%
59	CCCCNC(C(=O)Nc1cccc(S(=O)(=O)N2CCOCC2)c1)c1ccccc1 (stereo unspecified)	-1%	-2	1.3%	-1%
60	O=C(Cn1nnc(-c2cccs2)n1)NCc1ccco1	-1%	-1	-0.7%	-4%
61	C=CCC(C#Cc1ccc(C)cc1)N(CC)CC (stereo unspecified)	-2%	1	0.5%	-3%
62	COc1ccc(NC(=O)Cn2c(NCC(C)O)nc3ccccc32)cc1Cl (stereo unspecified)	5%	-2	-1.5%	-4%
63	CC(CNC(=O)Cn1ccc(N)nc1=O)c1ccccc1 (stereo unspecified)	.	.	-0.7%	2%
64	Cc1ccc(C(=O)Nc2ccc3c(c2)OCO3)cc1NC(=O)c1ccco1	-36%	3	?	-1%
65	CCN(CC1CCCO1)C(=O)c1cc(COc2ccc(OC)cc2Cl)on1 (stereo unspecified)	-34%	.	0.7%	8%
66	CC1=CC(C)(C)Nc2ccc(OC(=O)C(C)N3C(=O)c4ccccc4C3=O)cc21 (stereo unspecified)	?	-5	-5.0%	2%
67	COc1ccc(N2CCN(C3CC(=O)NC3=O)CC2)cc1 (stereo unspecified)	1%	-1	?	-20%
68	CN(CC(=O)Nc1ccc(F)c(F)c1F)C(=O)c1ccc(-n2cncn2)cc1	.	.	0.3%	8%
69	Cc1ccc(C)c(S(=O)(=O)N2CCCC2CNC(=O)C(=O)NC2CCCC2)c1 (stereo unspecified)	.	.	1.9%	23%
70	O=c1c(Cl)c(NCCCO)cnn1-c1nc2ccccc2[nH]1	?	6	?	-8%
71	O=C(COC(=O)COc1ccccc1[N+](=O)[O-])NCc1ccc2c(c1)OCO2	.	.	0.1%	7%
72	C/C(=N\Nc1nc2ccccc2s1)c1ccc(Br)s1	-9%	-18	2.3%	-21%
73	CCCC(C)NC(=O)c1cc(Cl)ccc1OC (stereo unspecified)	2%	2	-2.5%	1%
74	N/C(=N\OS(=O)(=O)c1ccc(Br)cc1)c1ccncc1	-1%	4	1.5%	1%
75	O=C(N/N=C/c1ccncc1)C1CC1(c1ccccc1)c1ccccc1 (stereo unspecified)	-18%	-3	0.3%	17%
76	Cc1cccc(NC(=S)NCC(c2cccnc2)N(C)C)c1 (stereo unspecified)	-7%	1	2.3%	0%
77	O=S(=O)(Nc1cccnc1Cl)c1ccc(F)cc1	0%	.	-2.5%	-4%
78	O=C(NCC1CCCO1)c1cc2ccccc2oc1=O (stereo unspecified)	-26%	1	-0.6%	-14%
79	O=S(=O)(c1ccccc1F)N1CCN(CC(O)c2ccccc2)CC1 (stereo unspecified)	-2%	-5	1.3%	1%
80	O=C(OCC(=O)C12CC3CC(CC(C3)C1)C2)c1ccccn1	-2%	.	-0.6%	33%

(listing goes on)
#	smiles	miR-21 reporter	GLA inh pH 4.5	Rango-impB inh	Rango release inh
81	COc1cc2c(cc1OC)C(Cc1ccccc1[N+](=O)[O-])=NCC2	.	.	-0.8%	2%
82	COC(=O)c1cc(NC(=O)c2cccnc2)ccc1N1CCOCC1	0%	3	-2.6%	16%
83	O=C(CC(C(=O)O)C1CCCO1)NCc1ccccc1 (stereo unspecified)	-3%	0	-5.1%	14%
84	C=CC[C@@H](CC(=O)N[C@@H](CO)Cc1ccccc1)C(=O)N[C@@H](COC(=O)[C@@H](CC=C)Cc1ccc(F)cc1)Cc1c[nH]c2ccccc12	.	.	-1.6%	0%

This is a subset; rates above refer to the full screens.
